Rango complex inh: qHTS Assay for Inhibitors of Rango (Ran-regulated importin-beta cargo) - Importin beta complex formation; AID 540263, 2011; Potency, µM (doses to about 92.2 µM), for inactives: at the top dose inhibition of complex formation; Importin subunit beta-1 (Homo sapiens), Q14974; 340,000 compounds, 0.031% hits; Rango CFP/YFP FRET sensor + importin beta, 45 min; active = rising FRET ratio curve, often small or poorly fitted; inconclusive = mostly compound fluorescence or quenching in the first reads; inactive = flat curves in all reads;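 also: potency is read from the fitted curve at half-maximal effect; 0% = DMSO wells and 100% = buffer wells lacking importin beta; nearly all actives have a fitted effect of over 15% in size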
Target sequence (Q14974 whole entry, looked up): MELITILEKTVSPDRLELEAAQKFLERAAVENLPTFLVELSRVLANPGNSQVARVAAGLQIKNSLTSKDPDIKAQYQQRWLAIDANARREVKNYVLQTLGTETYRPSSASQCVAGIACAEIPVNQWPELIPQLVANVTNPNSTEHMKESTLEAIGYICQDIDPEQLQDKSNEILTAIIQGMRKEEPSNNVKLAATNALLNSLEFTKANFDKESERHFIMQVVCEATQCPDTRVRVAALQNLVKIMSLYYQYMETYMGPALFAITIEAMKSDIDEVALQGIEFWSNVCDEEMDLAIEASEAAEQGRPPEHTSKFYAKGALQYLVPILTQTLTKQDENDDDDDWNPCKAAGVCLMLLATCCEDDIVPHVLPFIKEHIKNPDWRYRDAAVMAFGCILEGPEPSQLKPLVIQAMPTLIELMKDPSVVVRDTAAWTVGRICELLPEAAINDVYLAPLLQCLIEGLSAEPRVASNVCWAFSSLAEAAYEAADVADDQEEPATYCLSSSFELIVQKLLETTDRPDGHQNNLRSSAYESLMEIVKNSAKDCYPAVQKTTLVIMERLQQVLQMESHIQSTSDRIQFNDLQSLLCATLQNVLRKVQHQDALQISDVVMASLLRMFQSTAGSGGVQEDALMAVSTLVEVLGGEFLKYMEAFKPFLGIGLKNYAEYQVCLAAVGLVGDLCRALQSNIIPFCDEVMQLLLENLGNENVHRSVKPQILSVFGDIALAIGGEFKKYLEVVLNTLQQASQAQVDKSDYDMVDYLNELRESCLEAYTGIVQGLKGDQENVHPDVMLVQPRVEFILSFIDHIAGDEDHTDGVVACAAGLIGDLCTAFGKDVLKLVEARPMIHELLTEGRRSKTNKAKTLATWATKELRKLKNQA
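FRET biosensor Rango (snurportin 1 IBB between N-terminal EYFP and C-terminal Cerulean), 50 nM in PBS/1 mM DTT/0.02% Tween-20/0.1% BSA, preincubated 5 min RT with compound; 0.125 microM importin beta added, 45 min RT, CFP/YFP FRET ratio read.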
Rango release inh: qHTS Assay for Inhibitors of RanGTP induced Rango (Ran-regulated importin-beta cargo) - Importin beta complex dissociation. Snurportin-1 (Homo sapiens) + GTP-binding nuclear protein Ran (Homo sapiens) + Importin …. Biochemical FRET Rango-importin beta, RanGTP-induced dissociation. Potency, µM (top dose mostly 46.1 µM), without a hit: top-dose activity change, negative = inhibition. 340,000 compounds, 0.071% hits. AID 540253, 2011; active means falling FRET ratio curve, often poorly fitted, with flat reads before Ran was added; inconclusive means other falling curves, or compound fluorescence or quenching; inactive means flat or rising ratio curve;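 also: potency is read from the fitted curve at half-maximal effect; % of control where 0% means no effect; nearly all actives have a fitted effect of over 45% in size; -100% = wells without RanGTP and RCC1; the record marks most hits as doubtful in a second field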
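FRET read at 45 min, room temperature: inhibitors block the CFP/YFP signal rise when RanGTP (0.6 uM Ran, 2 mM GTP, 0.2 uM RCC1) frees Rango (0.1 uM) from importin beta (0.25 uM). Pre-read after 5 min compound exposure flags interference.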
miR-21 reporter: qHTS Assay for Modulators of miRNAs and/orActivators of miR-21 | HeLa miR-21 FLuc reporter, luciferase, 48 h | Potency, µM (highest dose often 38.3 µM), inactives show at the top dose reporter change, positive = more light | 340,000 tested, under 10 active; active = well fitted rising curve with a large enough effect; inconclusive = small, poorly fitted or top-dose-only effect; inactive = no such curve, though single readings can be large or run the other way;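 also: % of control where 0% means no effect; miR-21 action dims this reporter so a rising signal means less miR-21 action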
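HeLa miR-21-FLuc reporter line, endogenous miR-21; 2000 cells/well in DMEM/10% FBS; compound titration up to ~40uM final, 48 h, 37 degree Celsius; luciferase detection reagent, 15 min lysis, CCD luminescence.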
GLA inh pH 4.5: qHTS Assay for Inhibitors of Human alpha-Galactosidase at pH 4.5; activity change, negative = inhibition, % at 105 µM; 230,000 tested, under 10 active; purified enzyme, 4-MU-alpha-Gal fluorescence, pH 4.5; inconclusive = small, poorly fitted or top-dose-only inhibition, or a rising curve; inactive = flat fitted curve, though single readings scatter; no compound was filed as active;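 also: 0% = full activity with enzyme and -100% = basal without enzyme; dose as in the result columns while the protocol names 77 µM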
* = called active by the depositor; ? = inconclusive; . = no result given; & = joins results of further samples.

Below each compound – miR-21 reporter, GLA inh pH 4.5, Rango complex inh, Rango release inh
FC(F)(F)c1ccc2c(c1)NP(=S)(N1CCOCC1)c1nccn1-2 (stereo not drawn)
 : -6.9%, -9.0, -2.1%, -1.2%
COc1ccc2c(c1O)[C@]13CCN(C)[C@H](C2)[C@@H]1CCC(=O)C3
 : -2.0%, -10.3, -3.4%, -1.8%
Cn1c2ccc(Br)cc2c2nnc(SCC(=O)O)nc21
 : 0.9%, ., 2.1%, 32.9%
O=C1C(Cl)=C(N2CCCCCC2)C(=O)N1c1ccccc1
 : -23.2%, -1.3, ?, -11.6%
C[C@H]1CCC/C=C/[C@@H]2C[C@H](O)C[C@H]2[C@@H](O)/C=C/C(=O)O1
 : ., ., -1.8%, -16.3%
CCOC(=O)c1cc(C)n(CCc2cnc[nH]2)c1C
 : -23.7%, -0.8, 0.1%, 22.7%
CN1C(=O)N(C)C(=O)C(CCc2ccccn2)(CCc2ccccn2)C1=O
 : -0.1%, -3.5, -0.1%, -26.1%
CC1(C)CC(=O)C(C=NCCN2CCN(C(=O)Cc3ccccc3)CC2)=C(O)C1
 : -2.0%, -0.1, -1.8%, 0.4%
CCCCCn1c(N)c(C(=O)NCCN2CCOCC2)c2nc3ccccc3nc21
 : 25.8%, 9.9, ?, ?
O=C(NCc1ccccc1)c1cccn(Cc2cccc(Cl)c2)c1=O
 : -4.1%, ., 1.0%, -12.6%
Cc1c(-c2cccc(Cl)c2)nc2ccccc2c1C(=O)N1CCC2(CC1)OCCO2
 : 8.5%, ., 0.8%, -13.2%
COc1cccc(N2C(=O)NC(=O)/C(=C/c3ccc4c5c(cccc35)CC4)C2=O)c1
 : -7.2%, 4.6, ., .
c1cc(CCN2CCCC2)ccn1
 : 2.0%, -7.4, ?, -8.2%
O=CC(Cl)P(=O)(N1CCOCC1)N1CCOCC1 (stereo not drawn)
 : -1.1%, 3.5, -2.4%, 8.0%
COc1cc(OC)c(OC)cc1CN1CCN(C(=O)Cc2ccccc2)CC1
 : -2.1%, ., 3.9%, 3.7%
COC(=O)C1=C(c2ccc(-c3ccccc3)c(F)c2)C[C@@H]2CC[C@H]1N2C(=O)N1CCCCC1
 : ., ., 0.4%, 5.6%
C[C@H]1OC[C@@H](C[N+](C)(C)C)O1
 : -3.6%, 5.9&-0.7, -1.0%, 7.4%
CN1CCN(c2ccc(/C=C3\C(=O)NC(=S)N(c4cccc(Br)c4)C3=O)o2)CC1
 : -2.4%, -5.3, ?, ?
Fc1ccccc1CNC1CN2CCC1CC2 (stereo not drawn)
 : -3.4%, 5.4, 1.4%, 11.9%
C=C1C2C[C@@]3([C@@H]1O)[C@@H](C[C@@H]2O)[C@@]12C4[C@@H]3C[C@@H]1[C@@](C)(CC[C@@H]2O)CN4CC
 : ., ., -1.0%, -1.4%
O=[N+]([O-])c1ccc(C2C3C(c4ccccc4)=NC4(CCCCC4)N32)cc1 (stereo not drawn)
 : -1.8%, 3.1, -0.6%, 10.4%
c1cc2c(cc1C1OCC3C(c4ccc5c(c4)OCO5)OCC13)OCO2 (stereo not drawn)
 : ., ., -0.2%, 7.1%
CCOc1cc(/C=C2\C(=O)NC(=O)N(CCc3ccc(F)cc3)C2=O)ccc1O
 : 9.1%, 5.3, ?, -4.5%
COc1cc(/C=C2\C(=O)NC(=O)N(CCc3ccc(F)cc3)C2=O)ccc1O
 : -3.1%, -3.0, -0.6%, 12.3%
COC(=O)C1=C(c2ccc(OC(F)(F)F)cc2)C[C@@H]2CC[C@H]1N2C(=O)N1CCOCC1
 : ., ., -0.5%, -5.4%
c1ccc(C2(N3CCCCC3)CCCCC2)cc1
 : ., ., -2.7%, 1.8%
CCOC(=O)C(O)(c1ccc(N(CC)C(=O)OC)cc1)C(F)(F)F (stereo not drawn)
 : 1.4%, 3.7, -2.9%, -21.0%
CN(C/N=C(\N)N[N+](=O)[O-])S(=O)(=O)c1ccccc1
 : -2.5%, -4.9, 1.4%, 2.7%
Nc1ccc2ccccc2c1
 : ., ., -2.0%, 0.4%
COc1ccc(OC)c(NC(=O)N2C[C@H]3C[C@@H](C2)c2cccc(=O)n2C3)c1
 : -2.7%, ., -1.0%, 10.9%
CCNc1ccc(P(=S)(N(C)C)N(C)C)cc1
 : -5.9%, -6.7, -2.5%, 5.8%
CNC(=O)O/N=C/c1nn(C(=O)C(C)(C)C)cc1Br
 : 3.5%, -3.1, 4.2%, 7.9%
O=C1NC(c2cc3ccccc3nc2Cl)Nc2ccccc21 (stereo not drawn)
 : -8.5%, -5.4, -0.1%, -3.8%
CN(C)CCN=Cc1c(O)n(Cc2ccco2)c(=O)[nH]c1=O
 : 3.5%, -4.9, -2.5%, 15.5%
O=S1(=O)CC2(N3CCOCC3)CCCCCCC21 (stereo not drawn)
 : -3.1%, -3.6, 0.0%, -10.1%
O=C(Nc1nccs1)c1c(O)c2c(n(Cc3ccco3)c1=O)CCCC2
 : -1.5%, -9.5, 0.2%, 7.2%
Cc1ccsc1C(=O)C1CCCN(Cc2cnc(N(C)C)s2)C1 (stereo not drawn)
 : -10.8%, -0.8, ., .
COc1ccc(/C=C/C(=O)c2c(O)n(CCC3=CCCCC3)c(=O)[nH]c2=O)cc1
 : 1.6%, 4.0, 0.1%, 21.3%
Nc1c2c(nc3ccccc13)CCN(Cc1ccccc1)C2
 : -4.9%, ., ?, ?
Cc1cccc(NC(=O)N2C[C@H]3C[C@@H](C2)c2cccc(=O)n2C3)c1
 : -0.9%, ., 3.7%, 6.5%
CCOC(=O)c1ccccc1NC(=O)c1c(O)[nH]c(=O)[nH]c1=O
 : ., ., 0.1%, 1.5%
O=C1CC(=O)N(c2cccc(C(F)(F)F)c2)C(=O)N1
 : 1.0%, ., 2.8%, 17.0%
Fc1ccc(Cn2nnnc2C(c2ccc(F)cc2)N2CC=C(c3ccc(F)cc3)CC2)cc1 (stereo not drawn)
 : -1.5%, -2.1, 1.5%, -9.9%
O=C(CCl)Nc1nccs1
 : 22.2%, -11.9, 2.5%, 8.9%
Cc1cc(C)cc(NC(=O)CCNC(=O)N2C[C@H]3C[C@@H](C2)c2cccc(=O)n2C3)c1
 : 0.4%, ., -2.9%, 0.7%
CC(=O)c1ccc(-c2ccccc2)cc1
 : -49.4%, ., -1.8%, 2.2%
C=C(CO)CC1CC(O)[C@]2(C)OC3CC4OC5C[C@]6(C)O[C@]7(C)CCC8OC9C[C@]%10(C)OC%11C(C)=CC(=O)OC%11CC%10OC9C[C@@H](C)C8OC7CC6O[C@]5(C)C/C=C\C4OC3CC2O1 (stereo partly drawn)
 : -0.7%, -7.8, 3.8%, -0.2%
O=C(c1cc2c(s1)CCCCCC2)N1CCC2(CC1)OCCO2
 : -16.9%, -2.8, 4.8%, -10.0%
O=C(C[n+]1ccn(CCCNP2(=O)C=C(c3ccccc3)OC(c3ccccc3)=C2)c1)c1ccccc1
 : -0.7%, 9.7, 1.3%, 6.0%
CCOC(=O)c1sc(/N=C/c2c(O)n(-c3ccccc3)c(=O)[nH]c2=O)c(C#N)c1C
 : -15.1%, 6.2, 0.0%, -3.4%

(more compounds)
Below each compound – miR-21 reporter, GLA inh pH 4.5, Rango complex inh, Rango release inh
CCOC(=O)C1(CCc2ccccc2)CCN(Cc2cccc3cnccc23)CC1
 : -3.4%, -5.2, ?, -0.7%
Cc1ccccc1-n1c(C)nc2ccsc2c1=O
 : ., ., -1.6%, 0.2%
CC12C=CC(=O)C=C1CC(O)C1C2CCC2(C)C1CCC2(C)O (stereo not drawn)
 : ., ., -4.4%, -11.6%
CCc1ccc(CN2CCN(C(=O)Cc3ccccc3)CC2)cc1
 : 9.5%, 4.5, 2.2%, 4.1%
Cc1ccc2c(c1)C1CN(C)CCC1N2C(=O)Nc1cccc(C(F)(F)F)c1 (stereo not drawn)
 : -11.1%, -3.5, 5.8%, -7.8%
CCCNc1oc(-c2cccc3ccccc23)nc1C#N
 : -40.4%, 1.0, ?, ?
CCCN(CC1CC1)CC(O)c1ccccc1 (stereo not drawn)
 : -4.6%, ., 3.4%, -1.1%
O=C(Cc1ccccc1)N1CCN(C2CCCCCC2)CC1
 : -5.7%, 6.2, 1.9%, -12.9%
O=C1NC(=O)N(Cc2ccccc2)C(=O)/C1=C\N1CCCc2ccccc21
 : -12.5%, 5.7, ?, ?
Nc1ccc2c(c1)Cc1cc([N+](=O)[O-])ccc1-2
 : -59.5%, -4.5, 22.3%, ?
O=C(Nc1cccc2ccccc12)N1CCC2(CC1)OCCO2
 : -33.2%, 3.4, 0.6%, -0.1%
O=P(Nc1ccccc1)(Nc1ccccc1)Oc1cccc(Cl)c1
 : 12.1%, 3.6, 0.4%, 2.9%
O=C(O)Cn1cc(C(=O)c2ccccc2)c2ccccc21
 : 1.4%, 1.4, -1.0%, -7.5%
COc1ccc(-n2c(/C=C/c3ccc(O)c(OC)c3)nc3ccccc3c2=O)cc1
 : 10.8%, ., ?, ?
O=C(Nc1ccc(C(F)(F)F)cc1)c1cccn(Cc2ccc3c(c2)OC(F)(F)O3)c1=O
 : 7.4%, 0.8, 1.0%, -24.6%
Cc1cccc(CN2CCN(C(=O)Cc3ccccc3)CC2)c1
 : -1.0%, ., 2.3%, -24.6%
O=c1[nH]c(=O)n(Cc2ccco2)c(O)c1/C=N/N1CCCCCC1
 : -3.8%, 6.6, -3.5%, 16.0%
CC(NC1CCCCC1)C(O)C12CC3CC(CC(C3)C1)C2 (stereo not drawn)
 : -8.5%, -4.7, 0.0%, -0.8%
CC1Oc2cc3c(-c4c(O)cc(O)c5c(O)c6c(cc45)OC(C)C(C)C6=O)c(O)cc(O)c3c(O)c2C(=O)C1C (stereo not drawn)
 : ?, -1.8, 9.5%, 0.1%
CCN(CC)CCCN=C(C)c1c(O)n(C2CCCCC2)c(=O)[nH]c1=O
 : 4.6%, 0.0, 0.0%, 1.6%
COC(=O)C1=C(c2ccccc2OCc2ccccc2)C[C@@H]2CC[C@H]1N2C(=O)NCc1ccc(N(C)C)cc1
 : ., ., 0.7%, 17.0%
OC1(c2ccc(F)cc2)CC2CCC(C1)N2Cc1nnnn1C1CCCCC1 (stereo not drawn)
 : 8.9%, -5.7, -2.5%, 8.3%
COC(=O)C1=C(c2ccc(S(C)(=O)=O)cc2)C[C@@H]2CC[C@H]1N2C(=O)NC1CC1
 : ., ., 0.5%, -3.1%
O=[N+]([O-])c1ccc(N2CCCC2)c2ccncc12
 : -1.7%, 5.9, -0.6%, 21.9%
O=C1NC(=O)C(=Cc2cccc(OCCOc3ccccc3)c2)C(=O)N1
 : -45.7%, ., 1.1%, -7.6%
Cc1cc(C=C(C#N)C#N)ccc1N1CCCC1
 : -1.8%, 10.3, ?, ?
CCN(CC)c1ccc(C=C2C(=O)NC(=S)NC2=O)cc1
 : -0.2%, -13.7, 2.8%, -0.2%
CC1CC2(O)c3no[n+]([O-])c3CCC2N1O (stereo not drawn)
 : 0.1%, -1.4, 4.1%, 3.9%
CCN1CCN(S(=O)(=O)c2ccc(Cl)c(C(=O)Nc3ccc(C(=O)N(CC)CC)cc3)c2)CC1
 : 8.0%, ., -0.8%, -11.9%
CC(C)(O)/C=C/C(=O)[C@](C)(O)C1[C@H](O)C[C@@]2(C)C3CC=C4C(C[C@H](O)[C@@H](O)C4(C)C)[C@]3(C)C(=O)C[C@]12C (stereo partly drawn)
 : ., ., -1.8%, -1.4%
O=C(NC1CCCCC1)[C@@H]1CC=C[C@@H]2CCN(Cc3ccccc3)C(=O)[C@@H]21
 : ., ., -0.9%, 14.6%
COC(=O)c1ccccc1N=Cc1c(O)[nH]c(=S)[nH]c1=O
 : -2.7%, -29.2, 1.6%, -0.7%
CC1(C)C(=O)C=C[C@]2(C)[C@H]3CC[C@@]4(C)[C@H](c5ccoc5)OC(=O)[C@H]5O[C@]54[C@]3(C)[C@H](O)C[C@@H]12
 : 16.2%, -3.9, 0.1%, 8.6%
O=C1NC(=O)N(c2ccccc2F)C(=O)/C1=C/c1cn(CC(=O)N2CCOCC2)c2ccccc12
 : 1.3%, ., 0.6%, -6.1%

Bioassay records from PubChem.

These rows are one share of the data; rates above refer to the full screens.
